Six1-Eya2 inh = inhibitors of human Six1/Eya2 interaction; AlphaScreen GST-Six1/His-Eya2 binding, biochemical; active compounds read low; control for the full effect not named in the record; AID 651725; Q15475+O00167; 0.56% of 360,000 active; activity change, % (concentration not given with the values); in the data active = activity change below about -65%; inconclusive = about -30% to -65%; inactive = above about -30%; note: % is set by controls: 0 for no effect and ±100 for the full control effect
Target sequence (O00167 whole entry, looked up): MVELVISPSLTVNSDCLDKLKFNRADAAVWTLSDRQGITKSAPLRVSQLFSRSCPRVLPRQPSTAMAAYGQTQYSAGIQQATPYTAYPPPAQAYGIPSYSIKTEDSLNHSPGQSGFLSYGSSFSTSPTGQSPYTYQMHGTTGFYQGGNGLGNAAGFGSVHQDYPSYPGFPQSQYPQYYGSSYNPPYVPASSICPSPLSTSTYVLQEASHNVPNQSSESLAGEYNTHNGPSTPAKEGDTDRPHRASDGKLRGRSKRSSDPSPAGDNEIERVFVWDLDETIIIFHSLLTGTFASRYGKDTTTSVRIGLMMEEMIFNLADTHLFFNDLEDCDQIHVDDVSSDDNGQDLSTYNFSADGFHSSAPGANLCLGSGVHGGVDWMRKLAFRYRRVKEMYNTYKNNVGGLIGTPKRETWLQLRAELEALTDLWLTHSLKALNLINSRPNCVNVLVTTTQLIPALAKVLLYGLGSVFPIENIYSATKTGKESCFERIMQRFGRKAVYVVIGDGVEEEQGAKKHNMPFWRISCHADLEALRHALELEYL
Target sequence (Q15475 whole entry, looked up): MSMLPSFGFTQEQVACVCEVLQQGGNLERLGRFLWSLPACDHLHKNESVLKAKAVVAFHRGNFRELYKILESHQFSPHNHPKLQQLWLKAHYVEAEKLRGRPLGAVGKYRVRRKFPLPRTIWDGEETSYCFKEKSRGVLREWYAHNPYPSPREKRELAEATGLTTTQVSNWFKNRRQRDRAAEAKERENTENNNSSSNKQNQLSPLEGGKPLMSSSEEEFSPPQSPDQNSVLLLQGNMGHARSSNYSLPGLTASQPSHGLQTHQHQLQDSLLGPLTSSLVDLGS
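AlphaScreen with GST-Six1 and His-Eya2 (5X mix: 250 nM and 500 nM), glutathione donor and nickel acceptor beads; buffer 50 mM Tris pH 8.0, 300 mM NaCl, 1 mM TCEP; 1 h at 37 C in the dark.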
CtBP-E1A inh = blocks the CtBP interaction with E1A | AlphaScreen GST-E1A/His-CtBP binding, 1536-well; active compounds read low; control for the full effect not named in the record | activity change, % (no concentration beside the values) | 0.49% of 340,000 active | AID 651724; in the data active means activity change below about -65%; inconclusive means about -30% to -65%; inactive means above about -30%; note: % is set by controls: 0 for no effect and ±100 for the full control effect
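Protein mix (5X: 125 nM each GST-E1A, His-CtBP) was incubated with pinned compound 2 h at 37 deg C in dark, in 50 mM Tris pH 8.0 buffer with 300 mM NaCl. Glutathione donor and nickel acceptor beads followed; AlphaScreen signal read after 1 h.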
gsp ag = gsp mutant agonism | gsp mutant cells, cAMP HTRF, 30 min; control for the full effect not named in the record | Potency, µM (highest dose often 76.9 µM), for inactives: top-dose activation (cAMP increase), usual class: activators | 0.13% of 340,000 active | AID 624287; active = well fitted activation curve with a large enough effect; inconclusive = small, poorly fitted or top-dose-only effect, or another doubt; inactive = no such curve, though single readings can be large or run the other way; cell line not stated here;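 note: phosphodiesterase inhibitor Ro 20-1724 added with compounds to block cAMP breakdown; potency is the fitted concentration of half-maximal effect; nearly all actives have a fitted effect of over 60% in size; about a fifth of the inactives were tested at one dose only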
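Cells in DMEM/10% FBS with G418 were pretreated with compounds in DMSO plus […] (300 uM stock) for 30 min at 37C. cAMP was measured by HTRF (cAMP-d2 plus anti-cAMP antibody-K) after 30 min at room temperature.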
D2 PAM = potentiates the human D2 dopamine receptor allosterically; P14416; DiscoveRx D2 beta-arrestin cells, luminescence, 90 min; 100% = 57 uM dopamine signal; potentiation, % (no concentration beside the values); 0.23% of 360,000 active; active = potentiation of 50% or more; inconclusive = 30% to 50%; inactive = 30% or less;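 note: compound concentration not given in the record; tested on top of an EC20 dose of dopamine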
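D2 cells co-treated with compound plus 50 nM dopamine (EC20) for 90 min at 37 deg C to detect potentiation. Beta-arrestin recruitment was read as enzyme-fragment luminescence after 1 h at ambient temperature. Full response was set by 57 uM dopamine.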
D2 agonist = agonists of human D2 dopamine receptor (beta-arrestin); P14416; 0.084% of 360,000 active; AID 624465; activation, % (no concentration beside the values); DiscoveRx PathHunter D2 beta-arrestin, luminescence, 90 min; 100% = 57 uM dopamine signal; in the data active = activation above about 40%; inconclusive = about 15% to 40%; inactive = below about 15%; note: compound concentration not given in the record; the text of the record calls up to 30% inactive
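DiscoveRx PathHunter D2 beta-arrestin cells (2,100/well) attached overnight, then compound-stimulated 90 min at 37 C in HBSS/10 mM HEPES/0.1% Tween-20 buffer; beta-galactosidase complementation read by luminescence after 1 h at ambient temperature. Dopamine 57 uM final (EC100) as control.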
gsp antag = antagonists of gsp mutant (McCune-Albright syndrome). gsp-mutant cells, cAMP HTRF, 30 min; control for the full effect not named in the record. Potency, µM (titrated, usually from 76.9 µM), for the others: top-dose activity change, negative = inhibition, usual class: inhibitors. 0.4% of 340,000 active; active = falling curve of any shape with a large fitted effect; inconclusive = falling curve, mostly with a smaller effect; inactive = flat or rising curve; cell line not stated here;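 note: intracellular cAMP measured with PDE inhibitor Ro 20-1724 present during compound exposure; potency is the fitted concentration of half-maximal effect; % is set by controls: 0 for no effect and ±100 for the full control effect; nearly all actives have a fitted effect of over 65% in size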
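HTRF cAMP read-out (cAMP-d2 plus anti-cAMP antibody-K in lysis buffer, 30 min RT). Before lysis, cells are exposed to compounds with […] for 30 min at 37C in DPBS containing Ca/Mg, BSA and Tween 20.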
Starred values were filed as active, the others as inactive; ? = inconclusive; / = not tested or not shown; [ ] = another dose, or the depositor's remark.

The first 2 records, ahead of the listing:
SMILES	Six1-Eya2 inh	CtBP-E1A inh	gsp ag	D2 PAM	D2 agonist	gsp antag
CCOC(=O)c1cc(-c2ccc([N+](=O)[O-])cc2)nc2c1c(=O)[nH]c(=O)n2Cc1ccccc1	2	2	-12%	2	7.5	5%
O=C(CSc1nc2cc(Cl)ccc2s1)Nc1cccc(S(=O)(=O)N2CCOCC2)c1	-4	3	-17%	3	1.4	-16%

The list itself, previewed entries included:
SMILES	Six1-Eya2 inh	CtBP-E1A inh	gsp ag	D2 PAM	D2 agonist	gsp antag
CCOC(=O)c1cc(-c2ccc([N+](=O)[O-])cc2)nc2c1c(=O)[nH]c(=O)n2Cc1ccccc1	2	2	-12%	2	7.5	5%
O=C(CSc1nc2cc(Cl)ccc2s1)Nc1cccc(S(=O)(=O)N2CCOCC2)c1	-4	3	-17%	3	1.4	-16%
Cc1c(Cl)cccc1NC(=O)CCN1CCN(C)CC1	-2	11	-5%	-3	-1.8	7%
CN1C(=O)c2ccccc2N(C)C1c1ccc(F)cc1 (stereo not drawn)	9	9	0%[15.4 µM]	2	2.3	3%
CC(C)NC(=O)COC(=O)c1ccc(O)cc1	0	0	-24%	-10	1.4	-1%
CCN1CCCC1CNC(=O)c1ccc(CS(=O)(=O)c2ccccc2C)o1 (stereo not drawn)	1	0	?	-46	-2.6	-3%
COc1ccc(S(=O)(=O)NC(=O)C2(C)CCN2C(=O)COc2ccc(Cl)cc2)cc1 (stereo not drawn)	1	1	/	-4	-4.1	/
COc1ccccc1Oc1coc2c(CN3CCOCC3)c(O)ccc2c1=O	16	2	10%[15.4 µM]	-7	-3.3	1%
O=c1[nH]c(=S)n(-c2cccc(Cl)c2)c(O)c1/C=N/N1CCOCC1	-2	/	16%	-23	-4.4	-14%
Cc1ccc(-n2cnc3c(=O)[nH]cnc32)cc1[N+](=O)[O-]	-13	-3	-36%	-1	-1.5	9%
CCOC(=O)C1CCCN(S(=O)(=O)c2ccc(NC(C)=O)cc2)C1 (stereo not drawn)	6	/	-44%	-6	-6.6	-1%
CCOc1ccc(NC(=O)CN2CCN(CC(=O)Nc3ccc(N(C)C)cc3)CC2)cc1	-1	4	-55%[inhibitor]	2	13	-1%
Cc1ccc(C)c(C(=O)c2c(C)nc3sccn23)c1	4	1	?	-5	-1.6	6%
CC(C)C[C@@H](CN)NC(=O)c1nc[nH]c1C(=O)N[C@@H](Cc1c[nH]c2ccccc12)C(=O)CNC[C@H](C)NC(=O)c1nc[nH]c1C(=O)N[C@@H](CC(=O)O)C(=O)O	-24	-27	/	-14	-4.9	-3%
Cc1nc2c(-c3ccc(F)cc3)c(C)nn2c(C)c1CCC(=O)Nc1ccc(F)cc1F	4	/	5%	-16	-6.2	-8%
CC(=O)c1c(C)oc2ccc(N(C(C)=O)S(=O)(=O)c3ccc(Cl)c([N+](=O)[O-])c3)cc12	-9	3	9%	-6	0.5	-8%
COc1ccc(NC(=O)CSc2ncnc3[nH]ncc23)cc1	-16	-29	-62%[inhibitor]	-11	-4.5	12%
C[C@H](CO)N1C[C@H](C)[C@@H](CN(C)C(=O)NC2CCCCC2)Oc2ccc(NC(=O)c3ccncc3)cc2C1=O	4	3	-38%[inhibitor]	-4	-7.1	11%
CN=C1S/C(=C\c2ccc(OCC(=O)OC)c(OC)c2)C(=O)N1C	-6	6	7%	-2	-2.2	-19%
CCCCNC(=S)N(C)/N=C/c1ccc2c(c1)OCO2	6	/	-18%	-2	5.9	?
Nc1ccccc1CNc1nc(NCCO)nc2c1ncn2CCN1CCOCC1	6	4	/	-6	-0.9	-8%
Cc1ccc(C)c(NS(=O)(=O)c2cc(C(N)=O)ccc2C)c1	19	0	?	-4	-1.0	9%
COc1cccc(CNC(=O)Cn2ccc3cc(S(=O)(=O)N4CCC(C)CC4)ccc32)c1	-1	-4	-78%[inhibitor]	-2	5.1	-8%
CC(C)(C)C1CCc2c(sc(NC(=O)C3CC=CCC3C(=O)O)c2C#N)C1 (stereo not drawn)	1	21	-4%	-3	1.1	40µM*
O=C(N/N=C/c1cccnc1)C(O)(c1ccccc1)c1ccccc1	10	6	12%	-1	1.8	8%
O=C1Nc2c(Cl)cc(Cl)cc2C1=O	-4	?	?	-16	4.0	8%
N#Cc1c(C(F)(F)F)cc(-c2ccccc2Cl)[nH]c1=O	-8	-12	15%	5	2.0	28µM*
CN(C)C(=O)c1ccc(NC(=O)COC(=O)C2=COCCO2)cc1	6	-1	2%	-22	0.9	4%
COC(=O)c1ccc(NC(=S)NN2CCOCC2)cc1	2	2	-34%[inhibitor]	-9	2.9	15%
Cc1sc2ncnc(N3CCC(C(=O)Nc4ccc(S(N)(=O)=O)cc4)CC3)c2c1C	-19	/	0%	-6	-1.8	-11%
CC1CN(C(=O)Nc2cccc(Cl)c2)C2(CCCCCC2)O1 (stereo not drawn)	33	/	-12%	-2	-5.0	6%
COc1ccc(NC(=O)C2Cc3c(-c4cccc(NC(C)=O)c4)ccnc3O2)cn1 (stereo not drawn)	-7	-12	/	-1	6.1	/
COCCn1c(SCC(=O)NC2CC2)nnc1-c1ccc(Cl)cc1	-1	/	-14%	2	-1.7	4%
O=C(O)c1cn(Cc2ccccc2)c2ccc(Cl)cc2c1=O	4	6	/	-9	-0.8	-3%
COc1ccccc1Nc1nc2ccccc2n2cnnc12	4	1	?	17	4.6	-10%
CCC(=O)N(C1=C(NC)C(=O)c2ccccc2C1=O)C(C)C	2	/	-55%[inhibitor]	3	?	-12%
COc1ccc(OC)c(N(CC(=O)NCC2CCCO2)S(=O)(=O)c2ccccc2)c1 (stereo not drawn)	-1	-11	-13%[15.4 µM]	-4	-2.2	-13%
CC(=O)Nc1ccc(S(=O)(=O)NC2(C(F)(F)F)C(=O)Nc3c2c(=O)n(C)c(=O)n3C)cc1 (stereo not drawn)	1	6	10%	1	-2.4	9%
CS(=O)(=O)Nc1cccc(C2=NN(S(C)(=O)=O)C(c3ccccc3)C2)c1 (stereo not drawn)	5	6	14%	-4	0.4	8%
COCCNC(=O)CN(Cc1ccccc1)S(=O)(=O)c1ccc2nc(C)sc2c1	-6	/	?	-5	-8.1	1%
CCOC(=O)C1CCN(C(=O)Cc2ccc(OC)c(OC)c2)CC1	-16	5	0%	5	-3.2	2%
C=CCNC(=O)c1cc2c(=O)n3cccc(C)c3nc2s1	-2	8	-6%[15.4 µM]	0	3.6	5%
COc1cccc(COCC(O)Cn2cnc3cc(C)c(C)cc32)c1 (stereo not drawn)	-2	-1	-10%[15.4 µM]	-9	-0.3	?
CCCCNC(=O)Cc1c(O)c2ccccc2[nH]c1=O	2	3	-9%	-5	0.7	0%
O=C(NCC(=O)N1CCCC(C(F)(F)F)C1)c1ccc2ccccc2c1 (stereo not drawn)	0	1	-21%[15.4 µM]	1	-0.4	3%
Cc1ccc(S(=O)(=O)NCC(C)NS(=O)(=O)c2ccc(C)cc2)cc1 (stereo not drawn)	2	5	-7%	2	-3.5	-15%
O=C(Cc1ccc([N+](=O)[O-])cc1)NCc1ccc2c(c1)OCO2	-5	5	-7%	-15	-3.5	1%
CCCc1cc(=O)n2[nH]cc(-c3ccc(Cl)cc3)c2n1	1	0	-8%[15.4 µM]	-9	-4.9	-18%
COc1ccc(N(CC(=O)NCc2cccs2)S(=O)(=O)c2c(C)n[nH]c2C)cc1	-1	0	-33%[inhibitor]	9	-3.4	?
Cc1cccc(NC(=S)NCCN2CCOCC2)c1	11	3	-40%[inhibitor]	-13	-1.1	13%
COC(=O)[C@@H](Cc1ccccc1)N(Cc1ccccc1)S(=O)(=O)N(Cc1ccccc1)[C@H](Cc1ccccc1)C(=O)OC	-5	0	/	-8	-3.3	3%
CC(=O)NC1CC2CCC(C1)N2Cc1ccc(C)cc1 (stereo not drawn)	5	-2	0%	-41	1.6	4%
Cc1c(N=C2C=CC(=O)c3ccccc32)c(=O)n(-c2ccccc2)n1C	-12	1	6%[15.4 µM]	19	?	/
CC(NC(=O)c1ccccc1)C(=O)N/N=C/c1ccc(O)cc1 (stereo not drawn)	5	2	?	-2	-3.3	-9%
COc1ccc(NS(=O)(=O)c2cc(NC(=O)/C=C/c3cc(OC)c(OC)c(OC)c3)ccc2N2CCCCC2)cc1	-13	-24	-9%	-9	-1.6	-15%
Cc1cc(C(N)=O)c2cc(Br)ccc2n1	3	8	-18%	-1	-2.3	7%
COc1cc2nc(COc3ccccc3[N+](=O)[O-])oc(=O)c2cc1OC	7	5	-29%	-15	-5.0	-12%
CCC(O)(CC)C(=O)NN(C(=O)Nc1csc2c1CCCC2)c1ccccc1	4	1	0%	3	1.9	-7%
O=C(Nc1ccccc1N1CCCC1)c1cccc(-c2cc3ccccc3oc2=O)c1	-22	0	-28%	-14	-7.2	-20%
COc1cc(Nc2nc3c(N)cc(C(F)(F)F)cc3nc2-c2ccccc2)cc(OC)c1OC	-2	4	-10%	-11	4.1	?
Additional structures.
SMILES	Six1-Eya2 inh	CtBP-E1A inh	gsp ag	D2 PAM	D2 agonist	gsp antag
O=C(Nc1nnc(-c2ccncc2)o1)c1ccccc1F	-1	3	-2%[15.4 µM]	7	0.1	3%
CC1CC(C)CN(S(=O)(=O)c2ccc(NC(=O)CN3CCCCCC3)cc2)C1 (stereo not drawn)	-13	0	-36%[inhibitor]	-28	-4.8	-2%
COc1cccc(-n2nnnc2SCC(=O)N2CCCc3ccccc32)c1	-7	3	1%	-10	-1.3	-22%
Cc1ccc(CC2CC(=O)N(c3ccc(C)cc3)C2=O)cc1 (stereo not drawn)	6	-1	4%	2	-2.2	2%
COc1ccc(CCNC(=O)C2CCN(S(=O)(=O)c3ccc(OC)c(OC)c3)CC2)cc1OC	-10	0	-16%	-30	-3.7	9%
O=C(/C=C/c1cn(-c2ccccc2)nc1-c1cccnc1)N1CCCCC1	-3	-2	7%	-9	2.0	?
Cn1nccc1NS(=O)(=O)c1ccc(F)cc1	1	-6	-1%[15.4 µM]	-4	-3.2	10%
COc1ccccc1NC(=O)CC1C(=O)Nc2c1c(=O)n(C)c(=O)n2C (stereo not drawn)	12	1	-4%	-4	-4.4	-7%
COCN(C#N)c1nc(OC)nc(OC)n1	5	7	1%	-10	1.4	1%
Cc1noc(NS(=O)(=O)c2ccc(NC(=O)c3cc(=O)c4ccccc4o3)cc2)c1C	-20	-19	?	2	4.1	18%
COCCCNC(=O)c1cn(CC(C)C)c(=O)c2c1c1ccccc1n2C	21	26	-1%	-8	-1.2	15%
CC(C)(C)c1ccc(C(=O)N2CCC2(C)C(=O)NCc2ccc3c(c2)OCO3)cc1 (stereo not drawn)	-6	1	/	-9	6.5	/

Shown as a hit in gsp antag, of those listed so far:
SMILES	Six1-Eya2 inh	CtBP-E1A inh	gsp ag	D2 PAM	D2 agonist	gsp antag
CC(C)(C)C1CCc2c(sc(NC(=O)C3CC=CCC3C(=O)O)c2C#N)C1 (stereo not drawn)	1	21	-4%	-3	1.1	40µM*
N#Cc1c(C(F)(F)F)cc(-c2ccccc2Cl)[nH]c1=O	-8	-12	15%	5	2.0	28µM*

Screening data: PubChem BioAssay, National Center for Advancing Translational Sciences (NCATS)
